Assay outcomes (PubChem)
Mtb hypoxia rep – inhibitors of hypoxia-regulated fluorescent reporter in Mycobacterium tuberculosis; M. tuberculosis hypoxia-regulated fluorescent reporter, fluorescence; AID 1159583; fluorescence inhibition, % (test concentration not listed); 0.1% of 300,000 active;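 active = 35 to 45% if threefold the growth effect, above 45% if 1.5-fold the growth effect; inactive = the rest, general growth blockers included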;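 also: wells of about 50 µL received 100 nL stock; 0% = vehicle wells and 100% = reference inhibitor wells; whole bacteria with a GFP reporter of the hypoxia response; strong numbers were not always called active; many hits fall short of the cut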
RN4220 kill – kills Staphylococcus aureus RN4220. S. aureus RN4220 growth, OD600, 16 h. inhibition, % (concentration not given with the values). 0.33% of 330,000 active. AID 1259311;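 active = z-score of -3 or lower and OD600 up to 0.18 on both plates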;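 also: plate controls were untreated cells for no effect and reference antibiotic for full effect; stock transfer was 100 nL into about 80 µL; one replicate is shown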
Sa ugtP lethal – compounds lethal to S. aureus RN4220 ugtP deletion mutant | OD600 growth, 16 h; some inactives read as strong as hits | growth inhibition, % (test concentration not listed) | 0.54% of 330,000 active | AID 1259309;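 active = z-score under -3 and OD600 up to 0.15 on both plates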;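 also: plate controls were untreated wells for no effect and antibiotic for full effect; wells of about 80 µL received 100 nL stock; the first replicate is given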
BJeLR lethal – kills HRASV12-expressing BJeLR cells. AID 1554. BJeLR (HRASV12) viability, CellTiter-Glo ATP luminescence, 48 h; reference of the scale not given here. 0.17% of 300,000 active. inhibition, % (no concentration beside the values);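 active = replicate mean above 50%; inconclusive = above 50% but judged a plate artefact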;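 also: 50 nL library stock added to about 25 µL; numbers are from one replicate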
PrP UTR inh – suppresses PrP 5' UTR mRNA reporter expression; cell-based PrP 5' UTR mRNA reporter, plate reader; inhibition, % (test concentration not listed); 0.35% of 340,000 active; AID 488862;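 active = every replicate at 50% or more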;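 also: 0 = median of the neutral control wells; tested in H4 reporter cells; numbers are from one replicate; inactives centre near -14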
Autofluor counter – flagged as autofluorescent in microsphere protease counterscreen; compound autofluorescence counterscreen, microsphere flow cytometry; active compounds read high; fluorescence intensity (concentration not given with the values); 3.1% of 360,000 active;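 active = at least 3 SD above the mean of all compounds, about 16000 in these data; inconclusive = too few beads counted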;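 also: 100 nL of 1 mM stock went into each well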
Mtb hypoxia rep growth – second read-out of Mtb hypoxia rep, no call of its own (marks repeat the call); growth inhibition, %; measured here: M. tuberculosis growth (absorbance);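 0% = vehicle and 100% = reference antibiotic; read after six days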
The depositor's hits bear a star; ? = inconclusive; . = not tested or not shown. This is a random part of the collection. About 4% of those tested had a hit in this group.

SMILES	Mtb hypoxia rep	Mtb hypoxia rep growth	RN4220 kill	Sa ugtP lethal	BJeLR lethal	PrP UTR inh	Autofluor counter
CNc1nc(SCC(=O)Nc2ccccc2)nc(N2CCOCC2)n1	7	9	0.0	-2	6	-2	5263
Clc1ccc(C=NN2CCN(Cc3ccccc3)CC2)cc1	1	-6	6.4	9	.	.	.
CC(=NNc1nc(N2CCCCC2)nc(N2CCOCC2)n1)c1cccs1	2	2	-4.0	-2	.	.	.
O=C(Nc1ccc(Oc2ccc(C(=O)O)c(C(=O)O)c2)cc1)c1cccs1	-3	5	2.6	10	-2	-6	4494
COc1ccccc1N1CCN(CC(O)c2ccc3cc[nH]c3c2)CC1 (stereo not given)	0	6	18	21	-4	-1	5307
CCC(=O)Nc1ccc(NC(=O)CSc2nnnn2-c2cccnc2)cc1C	9	3	2.9	6	5	-19	8397
Cc1ccc(Cn2c(=O)n(C)c(=O)c3sccc32)cc1	-1	14	6.8	5	10	-22	3848
Cc1ccc(NC(=O)CCNS(=O)(=O)c2cc(Br)cnc2N)c(Cl)c1	10	0	0.3	4	-20	.	.
COc1ccc2c(c1)-c1ccccc1S(=O)(=O)N2C(C)=O	11	20	1.8	-1	-8	2	13087
Cc1cccc2c1Sc1ccc(Cl)cc1CC2N1CCNCC1 (stereo not given)	16	27	-1.1	-13	-1	.	.
CCNC(=O)N1CCCC(C(=O)c2ccc3cc(OC)ccc3c2)C1 (stereo not given)	14	5	2.2	6	-2	5	2545
COc1ccc(N(C(=O)c2snc(C(N)=O)c2N)C(C(=O)NC2CCCCC2)c2ccc(C)o2)cc1 (stereo not given)	-7	5	3.7	5	7	-17	4592
CCN(CC)C(=S)Nc1ccc(OC)cc1	.	.	4.9	-1	4	55*	2090
C1CCCN(c2nc3nonc3nc2N2CCCCCC2)CC1	-7	1	-1.8	-3	0	-1	3602
CCOC(=O)C(C(=O)NCc1cccc(OC)c1)c1ncc(C(F)(F)F)cc1Cl (stereo not given)	.	.	13	17	-7	-11	2444
NC(=O)CC(NC(=O)Cc1ccc(Br)cc1)c1ccc(NC2CCN(Cc3ccccc3)CC2)c([N+](=O)[O-])c1 (stereo not given)	12	5	2.4	0	-6	3	4016
CCN(CC)c1ccc2nc3ccccc3[n+](CC)c2c1	.	.	.	.	40	-3	3328
Cc1ccc2nc(-c3ccccn3)oc2c1	.	.	3.6	4	-11	-19	3485
O=C(N/N=C/c1c(O)n(-c2ccccc2Cl)c(=O)c2ccccc12)c1cccnc1	-9	-6	7.6	-6	8	0	3257
O=S(=O)(NCc1ccccc1Cl)c1cccs1	7	5	14	1	-6	-27	4453
COc1cc(Br)c(C(C)NC(=O)c2ccc(C)cc2)cc1OC (stereo not given)	0	1	-4.3	12	-9	.	10237
COc1cc(OC)c2c(O)c3c(c(-c4c5c(c(O)c6c(OC)cc(OC)cc46)CO[C@@H](C)[C@H]5O)c2c1)[C@H](O)[C@H](C)OC3	.	.	0.0	11	-4	-7	5867
CC(C)c1ccc(C(C(=O)NC(C)(C)C)N(C(=O)CNC(=O)c2ccco2)c2cccnc2)cc1 (stereo not given)	.	.	0.0	1	-4	-22	2667
COc1cccc(C=NNC(=S)NCc2ccco2)c1OC	11	8	6.0	13	.	.	.
CC1CCN(C(=O)CN(Cc2ccc(F)cc2)S(C)(=O)=O)CC1	12	2	2.7	9	-3	-18	3908
C/C(=N\O)C(=O)NCCCNCCCN(C)C	.	.	.	.	4	-11	4808
COc1ccc(C)cc1NC(=O)c1nn(-c2ccccc2)cc1OC	10	9	4.9	-8	4	-17	4609
CC(=O)Nc1ccc(S(=O)(=O)N2CCCCC2c2cccnc2)cc1 (stereo not given)	-7	16	2.3	-7	0	-10	9766
S=C(Nc1ccc2snnc2c1)N1CCN(c2ccccn2)CC1	.	.	-4.5	-1	9	-1	4290
CC(=O)NCCn1c(SCC(=O)Nc2ccc(C)cc2)nc2ccccc2c1=O	3	10	5.3	2	-2	-17	4594
Cc1cc(Cc2cc(C)c(O)c(CO)c2)cc(CO)c1O	4	18	5.8	5	.	-5	3012
O=C(/C=C/c1ccccc1)N(Cc1ccc(Cl)cc1)C1CCS(=O)(=O)C1 (stereo not given)	15	9	3.5	1	-9	.	3519
CCOC(=O)c1[nH]c2ccc(OC)cc2c1C	.	.	0.8	-4	0	-28	2179
O=S1(=O)C2CC3C=C[C@@]2(CN1Cc1ccc(Cl)cc1)O3 (stereo not given in full)	10	11	3.0	3	.	.	.
CCOc1cc(C(=O)N(C)CC(=O)Nc2cccc(F)c2)ccc1OCC(=O)N1CCCCC1	3	2	4.1	3	-6	-5	5739
CCOC(=O)C1C2COc3ccccc3C2N2C(=O)N(c3ccc(C)cc3)C(=O)[C@@]12C (stereo not given in full)	-2	1	4.4	0	.	.	.
CCOc1ccccc1NC(=O)Cn1c(-c2ccc(Cl)cc2)noc1=O	-23	-11	4.4	-2	8	-10	4424
Cc1sc2nc(CSC(C)C(=O)Nc3ccc(C(N)=O)cc3)[nH]c(=O)c2c1C (stereo not given)	5	12	-0.8	-6	-4	-5	?
CC1CCCCC12NC(=O)N(CC(=O)Nc1ccc(OC(F)F)cc1)C2=O (stereo not given)	3	8	6.0	4	.	-3	5720
CN(C(=O)c1cccc(NC(=O)Cc2ccc(NC(=O)C3CCN(C(=O)CCc4ccccc4)CC3)cc2)c1)C1CCC1	-13	4	5.1	3	.	-6	4093
Cc1ccc(C)c(NC(=S)N2CCC(NC(=O)c3ccco3)CC2)c1	5	2	0.9	0	0	-14	3363
NC(=O)c1cc(S(=O)(=O)NCc2cccs2)cs1	3	1	2.4	1	-6	4	5960
Cc1nn(C(=O)C(C)N2C(=O)c3ccccc3C2=O)c(C)c1Br (stereo not given)	2	3	-4.3	2	16	-21	3073
O=S(=O)(Nc1cccc(C(F)(F)F)c1)c1cnc[nH]1	.	.	2.3	3	2	-23	.
Cc1nn2c(=O)cc(CSCC(=O)Nc3ccccc3F)nc2s1	-6	-8	0.5	-1	3	-24	5161
CC1CCN(C(=O)c2cccc(S(=O)(=O)N3CCCc4ccccc43)c2)CC1	-3	2	8.1	3	-2	-23	6055
COc1cccc(Oc2ccc(N)cc2)c1	16	13	5.9	5	-3	1	4086
CCOc1ncccc1C(=O)OC(C)C(=O)Nc1ccc(CC)cc1 (stereo not given)	1	13	6.1	5	-18	-21	4313
O=C1CC(C(=O)Nc2ccccc2)N=C(N2CCCCC2)N1 (stereo not given)	0	5	-1.3	0	-29	-20	11307
C(=N\n1cnnc1)/c1ccc(N2CCOCC2)cc1	.	.	.	.	6	0	7937
COCC(=O)Nc1ccccc1NC(C)=O	-1	3	4.2	4	-8	-13	9408
Cc1ccc2c(CC(=O)OCC(=O)N(CC(C)C)c3c(N)n(Cc4ccccc4)c(=O)[nH]c3=O)coc2c1	9	-4	21	29	5	-9	?
N/C(=N\OC(=O)c1cccnc1)c1ccc(Cl)cc1Cl	5	6	4.9	9	1	1	2036
COc1ccc(CN2CCSCC2)cc1C	-1	-20	1.9	0	0	-15	7202
Cn1c(CSCc2ccccc2)nnc1SCC(=O)Nc1nccs1	6	1	7.6	12	0	-17	?
COc1cc(C(=O)Nc2nnc(C3=COCCO3)o2)cc(OC)c1OC	12	2	2.2	-4	-19	-16	6160
c1ccc(CSc2snnc2-c2ccccc2)cc1	22	4	5.0	7	2	-36	?
Cc1csc2c(=O)sc(NC(=O)c3ccc(F)cc3Cl)nc12	5	6	5.7	-1	3	-12	.
O=C(C1CC2CCC1C2)N1CCN(Cc2ccc3c(c2)OCO3)CC1 (stereo not given)	9	9	2.5	0	4	.	.
CCC(=NOCc1ccccc1)C(=O)NNS(=O)(=O)c1ccc(C)cc1	4	7	5.7	-4	.	-16	3645

Among those listed so far, these have a CF3 group:
SMILES	Mtb hypoxia rep	Mtb hypoxia rep growth	RN4220 kill	Sa ugtP lethal	BJeLR lethal	PrP UTR inh	Autofluor counter
CCOC(=O)C(C(=O)NCc1cccc(OC)c1)c1ncc(C(F)(F)F)cc1Cl (stereo not given)	.	.	13	17	-7	-11	2444
O=S(=O)(Nc1cccc(C(F)(F)F)c1)c1cnc[nH]1	.	.	2.3	3	2	-23	.

The list continues:
SMILES	Mtb hypoxia rep	Mtb hypoxia rep growth	RN4220 kill	Sa ugtP lethal	BJeLR lethal	PrP UTR inh	Autofluor counter
COc1ccc(-c2nc3ncccc3o2)cc1NC(=O)c1cccs1	.	.	11	-25	-2	-18	5754
COc1ccc(CC(=O)N2CCCc3ccccc32)cc1OC	-4	3	1.9	-4	4	-2	3164
CC(C)(C)c1cc(NC(=O)COC(=O)c2ccc(O)cc2O)n(-c2ccccc2)n1	11	5	2.5	-4	3	-8	5652
O=C(c1ccccc1)N1CCN(C(=O)c2cccnc2)CC1	-4	1	3.8	3	-5	-13	4353
COc1ccc(-n2nc(C(=O)NCC(=O)NCCCN3CCOCC3)c3ccccc3c2=O)cc1Cl	-4	-14	-0.8	6	-1	-4	6226
CC(C)c1ccc(/C=C/C(=O)O)cc1	-1	1	4.8	9	-4	-8	4282
CC(=O)Nc1cc(C(F)(F)F)ccc1N1CCOCC1	4	5	4.8	-4	9	-28	9895
CCOC(=O)CSc1nccc(N(C)C)c1C#N	.	.	1.8	-7	-10	-11	2452
CCc1ccc(N2C(=O)CN(Cc3sccc3C)C2=S)cc1	10	8	15	7	3	-22	4372
O=C(Nc1cccc(Cl)c1)Nc1ccc(Cl)cn1	.	.	0.0	-1	-4	-30	2407
Cc1ccc(N(CC(=O)N2CCN(c3ccc(F)cc3)CC2)S(=O)(=O)c2c(C)noc2C)cc1	8	4	2.3	-7	-4	-6	6180
CCOc1ccccc1C(=O)NC(C(=O)NCCc1ccccn1)C(C)C (stereo not given)	3	3	4.9	8	.	-11	2894

Whole records from above.
`O=C(c1ccccc1)N1CCN(C(=O)c2cccnc2)CC1` is entered as Mtb hypoxia rep: -4; Mtb hypoxia rep growth: 1; RN4220 kill: 3.8; Sa ugtP lethal: 3; BJeLR lethal: -5; PrP UTR inh: -13; Autofluor counter: 4353
`CCOC(=O)CSc1nccc(N(C)C)c1C#N` is entered as Mtb hypoxia rep: .; Mtb hypoxia rep growth: .; RN4220 kill: 1.8; Sa ugtP lethal: -7; BJeLR lethal: -10; PrP UTR inh: -11; Autofluor counter: 2452

Continued.
SMILES	Mtb hypoxia rep	Mtb hypoxia rep growth	RN4220 kill	Sa ugtP lethal	BJeLR lethal	PrP UTR inh	Autofluor counter
CCn1cnc2sc(-c3ccccc3)cc2c1=O	12	10	11	-1	-1	-67	2888
COC(=O)c1cc(Br)c(=O)n(CCC2=CCCCC2)c1	14	7	9.4	-1	4	8	3149
CCC(CC)C(=O)Nc1cccc(C(=O)Nc2ccc3c(c2)OCO3)c1	-1	0	2.1	-3	0	-64	8637
O=C(CCCN1C(=O)CCC1=O)Nc1ccc(Br)cc1F	3	-3	8.0	6	1	-18	23503*
CC(C)(C)C1CCC(OC(=O)C[N+]2(C)CCCC2)CC1 (stereo not given)	0	6	3.0	-3	4	-22	4555
Cc1ccc(CNC(=O)C2CCCN(S(=O)(=O)c3c(C)[nH]c(=O)[nH]c3=O)C2)cc1 (stereo not given)	3	4	-2.2	-10	8	-20	2591
O=C(NCc1cccnc1)C1CCC(CNS(=O)(=O)c2cccc3nsnc23)CC1 (stereo not given)	-7	7	2.1	0	3	-24	4239
CCOC(=O)C1=C(c2ccccc2)NC(=O)NC1c1ccc(OC)cc1 (stereo not given)	10	10	3.2	1	-9	-18	4382
Cc1ccc2nc(-c3cccnc3)c(NC3CCCCC3)n2c1	-4	11	-2.1	3	19	-9	2059
CCOc1nc2c(c(-c3cccs3)c1C#N)Cc1ccccc1-2	.	.	.	.	-11	-33	5246
Cc1ccc(NC(=O)c2cc(-c3ccccc3)n[nH]2)cc1	0	3	2.4	-1	1	-33	4150
COc1ccc(CCn2c(O)c(C=NCc3cccnc3)c(=O)[nH]c2=O)cc1OC	10	7	2.8	3	3	-8	3937
CC(=O)C1=C(O)C(=O)N(c2ccc(Br)cn2)C1c1cccc([N+](=O)[O-])c1 (stereo not given)	-6	-5	-0.3	3	-8	-24	3024
O=C(NCc1cccc(Cl)c1)c1ccc(S(=O)(=O)Nc2cccc(C(F)(F)F)c2)cc1	5	10	-11	-36	-8	-12	8568
